Source: PubChem (National Center for Advancing Translational Sciences (NCATS))
gsp antagonist: antagonists of gsp mutant (McCune-Albright syndrome). gsp-mutant cells, cAMP HTRF, 30 min; control for the full effect not named in the record. Potency, µM (top dose mostly 76.9 µM), for inactives: at the top dose activity change, negative = inhibition, hits mostly inhibitors. hit rate 0.4% among 340,000; active = falling curve of any shape with a large fitted effect; inconclusive = falling curve, mostly with a smaller effect; inactive = flat or rising curve; cell line not stated here;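 further: intracellular cAMP measured with PDE inhibitor Ro 20-1724 present during compound exposure; potency means the concentration at half of the fitted maximal effect; on the % scale 0 is the no-effect control and ±100 the full control effect; nearly all actives have a fitted effect of over 65% in size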
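HTRF cAMP measurement after 30 min RT detection following 30 min, 37C compound treatment alongside […] (added as 300 uM solution) in G418-selected cells seeded at 2000/well and grown 16–24 h.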
Sfp inh: inhibitors of Bacillus subtilis Sfp phosphopantetheinyl transferase. hit rate 3.5% among 310,000. Potency, µM, without a hit: max response, negative = inhibition, most hits filed as inhibitors. AID 1490. Biochemical Sfp PPTase activity, qHTS. Q9F4F7; active means well fitted inhibition curve with a large enough effect; inconclusive means small, poorly fitted or top-dose-only effect, or another doubt; inactive means no such curve, though single readings can be large or run the other way;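 further: the enzyme is Sfp with the accession as filed and its product quenches rhodamine fluorescence; potency means the concentration at half of the fitted maximal effect; 0% = enzyme reaction without inhibitor and -100% = no enzyme wells; top concentration of the series not given in the record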
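Step 1, compound plus 15 nM Sfp-PPTase, 15 min, room temperature. Step 2, add rhodamine-CoA (5 uM) and BHQ-2-YbbR (12.5 uM). Step 3, read 525/598 nm fluorescence at 0 and 30 min.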
gsp agonist: activates gsp, the McCune-Albright syndrome mutation | gsp mutant cells, cAMP HTRF, 30 min; control for the full effect not named in the record | hit rate 0.13% among 340,000 | Potency, µM (highest dose often 76.9 µM), without a hit: top-dose activation (cAMP increase), hits mostly activators; active = well fitted activation curve with a large enough effect; inconclusive = small, poorly fitted or top-dose-only effect, or another doubt; inactive = no such curve, though single readings can be large or run the other way; cell line not stated here;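 further: phosphodiesterase inhibitor Ro 20-1724 added with compounds to block cAMP breakdown; potency means the concentration at half of the fitted maximal effect; nearly all actives have a fitted effect of over 60% in size; about a fifth of the inactives were tested at one dose only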
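Cells stably selected in G418 were plated at 2000/well, grown 16-24 hr, then given compounds in DMSO with the PDE inhibitor […] (300 uM solution added) for 30 min at 37C; cAMP was read by HTRF.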
Menin-MLL FL inh: inhibitors of human menin-MLL interaction, wild-type MLL peptide; Fluorescence polarization, fluorescein-MLL peptide displacement from menin; FP activity change, % at 61.4 µM; 290,000 tested, under 10 active; AID 1766; inconclusive = falling polarisation curve, or a change in total fluorescence; inactive = total fluorescence flat and polarisation flat or rising; no compound was filed as active; the % refers to the polarisation; negative = inhibition;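 further: % of control where 0% means no effect; inhibitors lower the polarisation; unlabelled MLL peptide was the positive control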
ClpP mod: qHTS Assay for Activators of ClpP. AID 651965, 2013. Potency, µM (top dose mostly 57.5 µM), for inactives: at the highest dose activity change, negative = active. purified B. subtilis ClpP, FRET peptide cleavage, 20 min. ATP-dependent Clp protease proteolytic subunit (Bacillus subtilis (strain 168)), P80244. hit rate 1.9% among 340,000; active = well fitted falling curve with a large enough effect; inconclusive = small, poorly fitted or top-dose-only effect; inactive = no such curve, though single readings can be large or run the other way; further: potency means the concentration at half of the fitted maximal effect; the source files actives as falling curves though it sought activators and does not explain the sign; nearly all actives have a fitted effect of over 65% in size; many hits overshoot -100%
Target sequence (P80244 whole entry, looked up): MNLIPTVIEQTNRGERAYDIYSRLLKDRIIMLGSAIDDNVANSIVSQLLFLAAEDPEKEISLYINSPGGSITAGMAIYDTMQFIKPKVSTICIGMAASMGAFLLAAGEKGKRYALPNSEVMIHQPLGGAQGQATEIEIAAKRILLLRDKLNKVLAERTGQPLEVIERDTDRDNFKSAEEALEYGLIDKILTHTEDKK
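Buffer: 100 mM Tris/HCl pH8, 100 mM KCl, 0.05% low protease BSA, 2.5% glycerol, 0.01% Tween-20. ClpP 10 microg/mL final; 20 min RT; delta FRET normalized to ADEP and DMSO controls.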
TRPV1 PAM: potentiators of human vanilloid receptor 1 (TRPV1). hit rate 0.02% among 320,000. potentiation, % at 8.33 µM. AID 540277. TRPV1-expressing cells, Fluo-8 calcium influx, capsaicin EC20 potentiation; host cell line not named in the record; control for the full effect not named in the record; active means potentiation above 80%; inconclusive means 30% to 80%; inactive means below 30%; further: 0% is about no effect
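Cells expressing TRPV1 were dye-loaded with Fluo-8 and read kinetically: 10 s baseline, 3 min after compound (agonist portion), then 2 min after EC20 capsaicin (allosteric enhancer portion). Calcium-bound dye fluorescence at 480/520 nm.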
D2 PAM: human D2 receptor positive allosteric modulation. P14416. DiscoveRx D2 beta-arrestin cells, luminescence, 90 min; 100% = 57 uM dopamine signal. potentiation, % (no concentration beside the values). hit rate 0.23% among 360,000. AID 624464; active = potentiation of 50% or more; inconclusive = 30% to 50%; inactive = 30% or less;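 further: compound concentration not given in the record; tested on top of an EC20 dose of dopamine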
Target sequence (P14416 whole entry, looked up): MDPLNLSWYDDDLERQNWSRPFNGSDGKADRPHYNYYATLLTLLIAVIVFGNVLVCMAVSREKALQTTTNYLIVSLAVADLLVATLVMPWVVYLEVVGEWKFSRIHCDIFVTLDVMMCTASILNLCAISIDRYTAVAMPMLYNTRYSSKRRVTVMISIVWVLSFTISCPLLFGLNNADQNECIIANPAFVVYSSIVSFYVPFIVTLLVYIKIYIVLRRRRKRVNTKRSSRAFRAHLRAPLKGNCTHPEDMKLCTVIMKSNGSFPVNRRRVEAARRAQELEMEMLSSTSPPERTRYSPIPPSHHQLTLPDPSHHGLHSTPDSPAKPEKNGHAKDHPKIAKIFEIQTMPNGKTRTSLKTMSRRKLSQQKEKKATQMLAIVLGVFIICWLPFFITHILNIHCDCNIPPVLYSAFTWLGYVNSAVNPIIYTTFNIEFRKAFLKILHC
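D2 cells co-treated with compound plus 50 nM dopamine (EC20) for 90 min at 37 deg C to detect potentiation. Beta-arrestin recruitment was read as enzyme-fragment luminescence after 1 h at ambient temperature. Full response was set by 57 uM dopamine.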
An asterisk follows results filed as active; [ ] = remark or other dose. The order is random. Share with any hit: about 5.1%.

Cc1[nH]c2ccccc2c1SCCNC(=O)c1ccc(Br)o1 was read as gsp antagonist -18.7%, Sfp inh -17.0%, gsp agonist 5.8%, Menin-MLL FL inh 0.7, ClpP mod -2.9%, TRPV1 PAM 0.9 and D2 PAM -5.8.
CC(=O)c1ccc(NC(=S)NCCCn2ccnc2)cc1 was read as gsp antagonist 2.6%, Sfp inh -6.5%, gsp agonist -13.8%[15.4 µM], Menin-MLL FL inh -0.2, ClpP mod -2.1%, TRPV1 PAM 5.0 and D2 PAM -4.9.
For CC1=C(C(=O)OCc2ccccc2)C(c2cccc(Br)c2)NC(=O)N1 (stereo unspecified) the results were gsp antagonist -9.6%, Sfp inh 32.4%[activator], gsp agonist -8.2%, Menin-MLL FL inh 1.6, ClpP mod -1.1%, TRPV1 PAM inconclusive and D2 PAM -1.5.
Screening CN(Cc1ccccc1)S(=O)(=O)c1ccc(NC(=O)C2CCCO2)cc1 (stereo unspecified) returned gsp antagonist -5.4%, Sfp inh 0.8%, gsp agonist inconclusive, Menin-MLL FL inh 1.2, ClpP mod 0.5%, TRPV1 PAM -8.5 and D2 PAM -20.7.
`Cc1ccc(C(=O)O/N=C(\N)c2ccc(C(F)(F)F)cn2)cc1` gave gsp antagonist 11.5%, Sfp inh -1.7%, gsp agonist -0.9%, Menin-MLL FL inh 6.8, ClpP mod 0.3%, TRPV1 PAM 6.7 and D2 PAM -2.5.
For CCOC(=O)C1=C(CN2CCOCC2)NC(=O)NC1c1cccc([N+](=O)[O-])c1 (stereo unspecified) the results were gsp antagonist 0.9%, Sfp inh 12.2%, gsp agonist 6.5%[15.4 µM], Menin-MLL FL inh 1.0, TRPV1 PAM 3.1 and D2 PAM -4.6.
Screening O=S(=O)(NCc1cccnc1)c1ccc(Cl)c2ccccc12 returned gsp antagonist -5.2%, Sfp inh 4.4%, gsp agonist -26.3%, Menin-MLL FL inh 1.5, TRPV1 PAM -0.9 and D2 PAM -5.8.
For O=C1C=CC(=O)N1Cc1cccnc1 the results were gsp antagonist 6.3%, gsp agonist 1.8% and D2 PAM -1.3.
Screening O=C(NC1=NCCS1)c1ccc(Cl)cc1 returned gsp antagonist 3.1%, Sfp inh -3.9%, gsp agonist -22.4%, Menin-MLL FL inh -1.2, ClpP mod 0.9%, TRPV1 PAM -1.4 and D2 PAM -1.6.
Screening COc1ccc(CCC(=O)NCCNC(=O)CCc2ccc(OC)cc2)cc1 returned gsp antagonist 1.8%, Sfp inh 25.3%, gsp agonist -40.3%[inhibitor], Menin-MLL FL inh -3.5, ClpP mod 0.5%, TRPV1 PAM 6.3 and D2 PAM -5.2.
O=C(NCc1ccccn1)C(=O)NCC1OCCN1S(=O)(=O)c1ccc(F)cc1 (stereo unspecified) was read as gsp antagonist -4.8%, Sfp inh -1.6%, gsp agonist -33.2%[inhibitor], ClpP mod -1.0%, TRPV1 PAM 1.8 and D2 PAM -9.6.
CCOC(=O)N1CCN(S(=O)(=O)c2cccs2)CC1 was read as gsp antagonist 11.3%, Sfp inh 10.8%, gsp agonist inconclusive, Menin-MLL FL inh -1.4, ClpP mod -1.5%, TRPV1 PAM 7.0 and D2 PAM 0.3.
Screening CCCCCN(C(=O)CCC(=O)OCC(=O)c1ccc(CCC)cc1)c1c(N)n(CCCC)c(=O)[nH]c1=O returned gsp antagonist -5.4%, gsp agonist -31.9%[inhibitor], ClpP mod -8.3%, TRPV1 PAM -5.1 and D2 PAM 16.2.
`CC(C)(C)CNc1cc(N2CCCC2)ccc1[N+](=O)[O-]` gave gsp antagonist 2.2%, Sfp inh 11.2%, gsp agonist inconclusive, Menin-MLL FL inh inconclusive, ClpP mod -2.2%, TRPV1 PAM -14.1 and D2 PAM -11.0.
Screening COc1ccc(S(=O)(=O)N2CCCC(C(=O)Nc3ccc(OC)c(OC)c3)C2)cc1 (stereo unspecified) returned gsp antagonist -17.8%, Sfp inh 15.3%, gsp agonist -11.4%, Menin-MLL FL inh 6.6, ClpP mod 1.0%, TRPV1 PAM 3.2 and D2 PAM -8.2.
For Nc1cnc(CNc2ccccc2Cl)cn1 the results were gsp antagonist 11.9%, Sfp inh -4.6%, Menin-MLL FL inh inconclusive, ClpP mod 3.1%, TRPV1 PAM inconclusive and D2 PAM -3.8.
For CN(C(=O)c1ccc(Br)o1)C1CCS(=O)(=O)C1 (stereo unspecified) the results were gsp antagonist 2.1%, Sfp inh 16.6%, gsp agonist 0.0%, Menin-MLL FL inh 7.3, TRPV1 PAM 0.7 and D2 PAM -1.1.
`COCC(=O)N(Cc1nc2ccccc2c(=O)[nH]1)Cc1cccs1` gave gsp antagonist 11.9%, Sfp inh 8.4%, gsp agonist -6.3%, Menin-MLL FL inh 3.5, ClpP mod -2.4%, TRPV1 PAM -3.4 and D2 PAM -3.9.
Screening CC(C)(O)CNC(=O)C(Cc1ccccc1)N1C(=O)c2ccccc2C1=O (stereo unspecified) returned gsp antagonist -0.3%, Sfp inh 7.7%, gsp agonist 12.0%, Menin-MLL FL inh 1.2, ClpP mod -0.3%, TRPV1 PAM 5.7 and D2 PAM 0.6.
`COc1ccccc1C1CC(c2ccco2)=NN1S(C)(=O)=O` (stereo unspecified) gave gsp antagonist -7.7%, Sfp inh 9.7%, gsp agonist -1.2%[15.4 µM], Menin-MLL FL inh 36.4[activator], ClpP mod -25.8%, TRPV1 PAM 1.9 and D2 PAM -2.6.
For CC1(C)Cc2cccc(OCC(=O)OCC(=O)NCc3ccc(F)cc3)c2O1 the results were gsp antagonist 1.8%, gsp agonist -2.7%[15.4 µM], ClpP mod 3.1%, TRPV1 PAM -25.3 and D2 PAM 14.7.
`CNC(=S)NNc1ccccc1[N+](=O)[O-]` gave gsp antagonist 5.3%, Sfp inh 2.51µM*, gsp agonist 7.0%[15.4 µM], Menin-MLL FL inh -0.6, ClpP mod -3.2%, TRPV1 PAM -6.3 and D2 PAM -1.4.
`O=C(c1ccc(F)cc1)n1ccc(-c2cnc(-c3ccccc3)s2)n1` gave gsp antagonist 3.6%, Sfp inh 2.5%, gsp agonist -8.3%, Menin-MLL FL inh -0.3, ClpP mod -7.3%, TRPV1 PAM inconclusive and D2 PAM -2.6.
Screening COc1ccc(S(=O)(=O)Nc2cccc3c2O[C@H](CN(C)S(=O)(=O)c2ccc(F)cc2)[C@H](C)CN([C@H](C)CO)C3=O)cc1 returned gsp antagonist -8.5%, gsp agonist 12.9%, ClpP mod 0.7% and D2 PAM -11.9.
Screening Cc1ccc(C(C)(c2ccc(N)cc2)c2ccc(N)cc2)cc1 returned gsp antagonist -6.2%, gsp agonist 0.9% and D2 PAM -1.2.
For COc1ccc(C(=O)Nc2cccc(OC(=O)c3ccc(C)c(C)c3)c2)cc1 the results were gsp antagonist -15.1%[15.4 µM], Sfp inh 12.2%, gsp agonist inconclusive, Menin-MLL FL inh 1.9, ClpP mod -3.0%, TRPV1 PAM -3.0 and D2 PAM -19.7.
Cc1cc(C(=O)Nc2cccc(/C=C/C(=O)O)c2)c(C)o1 was read as gsp antagonist 2.1%, Sfp inh -1.9%, gsp agonist -43.2%[inhibitor], Menin-MLL FL inh 1.7, ClpP mod -2.7%, TRPV1 PAM 5.2 and D2 PAM -1.3.
For CCN(CC)S(=O)(=O)c1ccc(NC(=O)c2ccc(Cl)nc2)cc1 the results were gsp antagonist -7.2%, Sfp inh 4.6%, gsp agonist 3.3%[15.4 µM], Menin-MLL FL inh 3.7, TRPV1 PAM -7.0 and D2 PAM -7.0.
Screening Cc1cc(Cl)ccc1C(=O)C1CCCN(C(=O)c2ccsc2)C1 (stereo unspecified) returned gsp antagonist -5.5%, gsp agonist -75.1%[inhibitor], ClpP mod 1.2% and D2 PAM -10.5.
Screening O=C1C=C(O)CC(c2ccc(Cl)c(Cl)c2)C1 (stereo unspecified) returned gsp antagonist 2.3%, Sfp inh 6.4%, gsp agonist -8.5%, Menin-MLL FL inh 1.7, ClpP mod -0.8%, TRPV1 PAM -6.9 and D2 PAM -3.6.
For COc1ccccc1NC(=O)NC1(C(=O)NCC2CCCO2)CCCCC1 (stereo unspecified) the results were gsp antagonist 8.8%, Sfp inh 14.9%, gsp agonist -10.5%, Menin-MLL FL inh 4.0, TRPV1 PAM -10.9 and D2 PAM -4.4.
For CCCn1c(N)c(N(CCOC)C(=O)c2ccc(C#N)cc2)c(=O)[nH]c1=O the results were gsp antagonist 3.3%, Sfp inh 8.7%, gsp agonist 16.5%, Menin-MLL FL inh -9.3, TRPV1 PAM -8.0 and D2 PAM -0.9.
`CC(C)c1ccc(CNC(=O)C2CC(=O)N(C3CCCCC3)C2)cc1` (stereo unspecified) gave gsp antagonist 7.8%, Sfp inh 9.2%, gsp agonist -13.3%, ClpP mod 0.6%, TRPV1 PAM -16.8 and D2 PAM 9.5.
`C=CCNC(=O)NC(=O)COC(=O)/C=C/c1cccc([N+](=O)[O-])c1` gave gsp antagonist -15.8%, Sfp inh 20.3%, gsp agonist 7.5%[15.4 µM], Menin-MLL FL inh -0.1, ClpP mod 0.2%, TRPV1 PAM -0.8 and D2 PAM -5.8.
Screening CC(=O)Nc1ccc(NC(=O)c2c(C)nc3ccccn23)cc1 returned gsp antagonist 10.1%, Sfp inh 8.4%, gsp agonist 34.6%, Menin-MLL FL inh 0.8, ClpP mod -0.2%, TRPV1 PAM 7.4 and D2 PAM -1.9.
For Cc1nnc(SCC(=O)Nc2sc3c(c2C#N)CCCCC3)n1N the results were gsp antagonist 4.4%, Sfp inh -17.5%, gsp agonist 0.4%, Menin-MLL FL inh 5.6, ClpP mod -15.2%, TRPV1 PAM 14.7 and D2 PAM -7.9.
COc1cc(NC(=O)CSc2nnc3ccc(-c4ccncc4)nn23)cc(OC)c1 was read as gsp antagonist -3.9%, Sfp inh 22.4%, gsp agonist inconclusive, Menin-MLL FL inh -3.9, TRPV1 PAM 6.0 and D2 PAM -3.4.
Screening O=C1CSc2ccc(C(=O)NCC(c3ccco3)N3CCCCC3)cc2N1 (stereo unspecified) returned gsp antagonist -15.9%, Sfp inh 7.4%, gsp agonist -24.1%, Menin-MLL FL inh -2.5, ClpP mod -0.4%, TRPV1 PAM -7.4 and D2 PAM -31.4.
